High-throughput results from PubChem BioAssay.
CBX7 inh: CBX7 inhibition, primary AlphaScreen; AlphaScreen His6-CBX7 / biotin-H3K27me3 peptide binding; active compounds read low; O95931; 1.1% of 66,000 active; normalised signal (fraction of DMSO) (concentration not given with the values); in the data active = normalised signal below about 0.5;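 also: 100 nL library stock added to about 20 µL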
Target sequence (O95931 whole entry, looked up): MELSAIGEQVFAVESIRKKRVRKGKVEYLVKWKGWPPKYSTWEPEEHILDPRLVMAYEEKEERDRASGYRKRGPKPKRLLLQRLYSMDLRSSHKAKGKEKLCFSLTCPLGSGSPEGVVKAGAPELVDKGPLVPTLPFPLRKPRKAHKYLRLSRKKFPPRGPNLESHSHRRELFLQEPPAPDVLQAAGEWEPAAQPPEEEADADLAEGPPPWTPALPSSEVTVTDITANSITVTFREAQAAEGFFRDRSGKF
CBX7 inh z-score: second read-out of CBX7 inh, no call of its own (marks repeat the call); z-score; measured here: z-score of CBX7 signal; some inactives read as strong as hits; reference of the scale not given here;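 same signal on another scale; lower means less binding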
An asterisk follows results filed as active; & = joins results of further samples.

The first 16 records, ahead of the listing:
`CCOc1ccc(CCNC(=O)Cn2nnc(-c3ccc(F)cc3)n2)cc1OCC` gave CBX7 inh 1.05 and CBX7 inh z-score 0.889.
CCOc1ccc2nc(SCC(=O)Nc3ccccc3)[nH]c2c1 was read as CBX7 inh 1.03 and CBX7 inh z-score 1.08.
Screening O=C(CCN1N=C(c2ccccc2)CCC1=O)NC1CCCCC1 returned CBX7 inh 1.13 and CBX7 inh z-score 0.255.
COc1ccc(OC)c(NC(=O)c2c(NCc3ccc(OC)c(OC)c3)sc3c2CCC3)c1 was read as CBX7 inh 0.707 and CBX7 inh z-score -5.78.
Cc1nc2c(C(=O)NCc3ccccc3)cnn2c(C)c1Cc1ccc(F)cc1Cl was read as CBX7 inh 1.02 and CBX7 inh z-score 0.613.
Screening CC(C)C(NS(=O)(=O)c1cccs1)C(=O)NC(c1ccccc1)c1ccccc1 (centres undefined) returned CBX7 inh 0.991 and CBX7 inh z-score -0.18.
Screening Cc1cc(C(=O)NCCCN2CCN(C)CC2)nn1-c1ccccc1 returned CBX7 inh 1.02 and CBX7 inh z-score 0.789.
For CN1CCN(CCCNC(=O)c2cc(-c3ccncc3)nc3ccccc23)CC1 the results were CBX7 inh 1.12 and CBX7 inh z-score 0.134.
Cc1ccc2c(c1)C(c1ccccc1)N(C(=O)CCC1CCCC1)CC(=O)N2 (centres undefined) was read as CBX7 inh 0.918 and CBX7 inh z-score -0.342.
COc1ccccc1CNC(=O)C(C)C1Sc2ccccc2N(Cc2ccc(F)cc2Cl)C1=O (centres undefined) was read as CBX7 inh 0.981 and CBX7 inh z-score -0.521.
`Cc1cc(-c2nc3ncccc3o2)ccc1NC(=O)C(C)(C)C` gave CBX7 inh 1.08 and CBX7 inh z-score 2.89.
Cc1ccc(-c2cc(C(=O)NCc3cnn(C)c3)c3cc(Br)ccc3n2)cc1 was read as CBX7 inh 1.1 and CBX7 inh z-score 3.01.
For Cc1ccc(NCc2nc(-c3ccc(C)cc3)no2)cc1 the results were CBX7 inh 0.815 and CBX7 inh z-score -2.14.
`Fc1ccc(-c2cc(C(F)(F)F)n3ncnc3n2)cc1` gave CBX7 inh 0.474* and CBX7 inh z-score -6.24*.
For Cc1ccc(O)c(-n2nc3ccccc3n2)c1 the results were CBX7 inh 1.05 and CBX7 inh z-score 0.995.
For CCOc1ccc(-c2cc(C(=O)NC(C)CC)c3ccccc3n2)cc1 (centres undefined) the results were CBX7 inh 1.08 and CBX7 inh z-score 2.1.

The whole of this part (from the top)
`CCOc1ccc(CCNC(=O)Cn2nnc(-c3ccc(F)cc3)n2)cc1OCC` gave CBX7 inh 1.05 and CBX7 inh z-score 0.889.
CCOc1ccc2nc(SCC(=O)Nc3ccccc3)[nH]c2c1 was read as CBX7 inh 1.03 and CBX7 inh z-score 1.08.
Screening O=C(CCN1N=C(c2ccccc2)CCC1=O)NC1CCCCC1 returned CBX7 inh 1.13 and CBX7 inh z-score 0.255.
COc1ccc(OC)c(NC(=O)c2c(NCc3ccc(OC)c(OC)c3)sc3c2CCC3)c1 was read as CBX7 inh 0.707 and CBX7 inh z-score -5.78.
Cc1nc2c(C(=O)NCc3ccccc3)cnn2c(C)c1Cc1ccc(F)cc1Cl was read as CBX7 inh 1.02 and CBX7 inh z-score 0.613.
Screening CC(C)C(NS(=O)(=O)c1cccs1)C(=O)NC(c1ccccc1)c1ccccc1 (centres undefined) returned CBX7 inh 0.991 and CBX7 inh z-score -0.18.
Screening Cc1cc(C(=O)NCCCN2CCN(C)CC2)nn1-c1ccccc1 returned CBX7 inh 1.02 and CBX7 inh z-score 0.789.
For CN1CCN(CCCNC(=O)c2cc(-c3ccncc3)nc3ccccc23)CC1 the results were CBX7 inh 1.12 and CBX7 inh z-score 0.134.
Cc1ccc2c(c1)C(c1ccccc1)N(C(=O)CCC1CCCC1)CC(=O)N2 (centres undefined) was read as CBX7 inh 0.918 and CBX7 inh z-score -0.342.
COc1ccccc1CNC(=O)C(C)C1Sc2ccccc2N(Cc2ccc(F)cc2Cl)C1=O (centres undefined) was read as CBX7 inh 0.981 and CBX7 inh z-score -0.521.
`Cc1cc(-c2nc3ncccc3o2)ccc1NC(=O)C(C)(C)C` gave CBX7 inh 1.08 and CBX7 inh z-score 2.89.
Cc1ccc(-c2cc(C(=O)NCc3cnn(C)c3)c3cc(Br)ccc3n2)cc1 was read as CBX7 inh 1.1 and CBX7 inh z-score 3.01.
For Cc1ccc(NCc2nc(-c3ccc(C)cc3)no2)cc1 the results were CBX7 inh 0.815 and CBX7 inh z-score -2.14.
`Fc1ccc(-c2cc(C(F)(F)F)n3ncnc3n2)cc1` gave CBX7 inh 0.474* and CBX7 inh z-score -6.24*.
For Cc1ccc(O)c(-n2nc3ccccc3n2)c1 the results were CBX7 inh 1.05 and CBX7 inh z-score 0.995.
For CCOc1ccc(-c2cc(C(=O)NC(C)CC)c3ccccc3n2)cc1 (centres undefined) the results were CBX7 inh 1.08 and CBX7 inh z-score 2.1.
`COc1ccc(CNC(=O)c2cc(Nc3ccccc3C)nc3ccccc23)cc1` gave CBX7 inh 0.989 and CBX7 inh z-score -0.177.
Screening O=C(NCCN1CCOCC1)C1C2C=CC3(CN(Cc4cccs4)C(=O)C13)O2 (centres undefined) returned CBX7 inh 1.01 and CBX7 inh z-score 0.248.
Screening Cc1cccc(CN2CCN(Cc3ccccc3C(F)(F)F)CC2)c1 returned CBX7 inh 1.07 and CBX7 inh z-score 1.76.
Screening CCC(C)N(CCNC(=O)c1ccc2c(c1)NC(=O)c1ccccc1S2)C1CCCCC1 (centres undefined) returned CBX7 inh 1.19 and CBX7 inh z-score 1.42.
`Cc1ccc(CNC(=O)C2CCN(Cc3nc(-c4ccc(Cl)cc4)oc3C)CC2)cc1` gave CBX7 inh 1.09 and CBX7 inh z-score 1.29.
`CCc1ccc(C2=NN(CCC(=O)NCc3ccc(C)cc3)C(=O)CC2)cc1` gave CBX7 inh 1.03 and CBX7 inh z-score 0.903.
Screening O=C(Nc1cc(-c2nc3ncccc3o2)ccc1Cl)c1cccc(OCc2ccccc2)c1 returned CBX7 inh 1.18 and CBX7 inh z-score 2.1.
For COc1cccc(-c2nn(C)c3sc(C(=O)NCCc4ccc(OC)c(OC)c4)cc23)c1 the results were CBX7 inh 0.995 and CBX7 inh z-score -0.0512.
`Cc1ccc(-c2cc(C(F)(F)F)n3ncc(C(=O)NCCCn4ccnc4)c3n2)cc1` gave CBX7 inh 1.09&0.849 and CBX7 inh z-score 1.17&-2.35.
`Cc1noc(C(=O)Nc2c(C)nn(Cc3ccccc3)c2C)c1Cl` gave CBX7 inh 1.01 and CBX7 inh z-score 0.527.
For Cc1ccc(C)c(Nc2nc(-c3ccccc3)c3cc(Br)ccc3n2)c1 the results were CBX7 inh 1.68 and CBX7 inh z-score 11.5.
Screening CCCCNC(=O)CN1C(=O)C(CC)Oc2ccccc21 (centres undefined) returned CBX7 inh 0.854 and CBX7 inh z-score -1.59.
For COc1ccc(-c2cc(C(F)(F)F)nc(NCc3cccs3)n2)cc1OC the results were CBX7 inh 1.12 and CBX7 inh z-score 4.94.
For COc1ccc(CNC(=O)C2CC(c3ccc(OC)cc3)=NO2)cc1 (centres undefined) the results were CBX7 inh 1.02 and CBX7 inh z-score 0.318.
For CCCn1c(SCC(=O)Nc2ccc(OC)cc2)nnc1-c1ccncc1 the results were CBX7 inh 1.04 and CBX7 inh z-score 1.25.
COc1ccc(Nc2cc(C(=O)NCCCN3CCOCC3)c3ccccc3n2)cc1OC was read as CBX7 inh 0.916 and CBX7 inh z-score -1.
Screening CCCc1c(C(=O)OCC)[nH]c2c1C(=O)CC(c1ccc(C(C)(C)C)cc1)C2 (centres undefined) returned CBX7 inh 0.956 and CBX7 inh z-score -0.56.
For COc1ccc2[nH]c(C)c(CCNS(=O)(=O)c3cc(Cl)ccc3OC)c2c1 the results were CBX7 inh 0.854 and CBX7 inh z-score -0.296.
Screening O=C(Cn1nc(Cc2cccnc2)c2ccccc2c1=O)N1CCN(c2ccccn2)CC1 returned CBX7 inh 1.07 and CBX7 inh z-score 0.751.
CC(C)Cc1ccc(-c2cc(C(=O)NCCCN3CCOCC3)c3ccccc3n2)cc1 was read as CBX7 inh 1.01 and CBX7 inh z-score 0.298.
Screening Cc1ccc(NC(=O)C2=CCN(S(=O)(=O)c3ccccc3)CC2)c(C)c1 returned CBX7 inh 0.988 and CBX7 inh z-score -0.22.
Screening CC(NC(=O)C1CCC(=O)N1Cc1ccc(F)cc1)c1ccc2c(c1)OCCO2 (centres undefined) returned CBX7 inh 0.977 and CBX7 inh z-score -0.592.
`COc1ccc(CCNC(=O)c2ccc3c(=O)n(CCc4ccccc4)c(=O)[nH]c3c2)cc1OC` gave CBX7 inh 1.06 and CBX7 inh z-score 1.55.
For COc1ccc2nc(NC(=O)C3CCN(S(=O)(=O)c4cccc5cccnc45)CC3)sc2c1 the results were CBX7 inh 0.937 and CBX7 inh z-score -0.808.
O=C(Cn1c(NCCO)nc2ccccc21)c1cccc2ccccc12 was read as CBX7 inh 0.934 and CBX7 inh z-score -1.3.
Screening COc1cc(-c2nc(-c3ccccc3)c(-c3ccccc3)[nH]2)ccc1OCC(=O)O returned CBX7 inh 0.774 and CBX7 inh z-score -0.891.
COCCN1Cc2cccc(C(=O)Nc3ccc(C)cc3C)c2C1=O was read as CBX7 inh 0.962 and CBX7 inh z-score -0.459.
Cc1ccc(S(=O)(=O)N=C(N)Nc2nc(C)c3cc(C)c(C)cc3n2)cc1 was read as CBX7 inh 1.05 and CBX7 inh z-score 0.577.
`CCn1c(C(Cc2ccccc2)NC(=O)C(C)(C)C)nc2ccccc21` (centres undefined) gave CBX7 inh 0.894 and CBX7 inh z-score -1.09.
For CCn1cc(C(=O)NCc2ccc3c(c2)OCO3)c(=O)c2ccc(C)nc21 the results were CBX7 inh 1.05 and CBX7 inh z-score 0.585.
For O=c1cc(N2CCN(c3ccccc3Cl)CC2)[nH]c(=O)n1Cc1ccc(F)cc1 the results were CBX7 inh 0.548 and CBX7 inh z-score -8.66.
Cc1cccc(Nc2nc(-c3sc(C)nc3C)cs2)c1 was read as CBX7 inh 0.447* and CBX7 inh z-score -11*.
`Cc1ccc(-c2ccc(CCC(=O)O)n2-c2ccccc2C)cc1` gave CBX7 inh 1.01 and CBX7 inh z-score 0.236.
`CCCCN(C)S(=O)(=O)c1cc(-c2n[nH]c(=O)c3ccccc23)ccc1C` gave CBX7 inh 1.07 and CBX7 inh z-score 0.668.
Screening Cc1ccc(CCN2CC(C(=O)NC3CCCC(C)C3C)CC2=O)cc1 (centres undefined) returned CBX7 inh 1.05 and CBX7 inh z-score 1.66.
`O=C(CSc1nc2ccccc2nc1Cc1ccc(F)cc1)Nc1ccccc1C(F)(F)F` gave CBX7 inh 1.06 and CBX7 inh z-score 1.06.
Screening CC(=O)Nc1ccc(CCc2nc3ccc(NC(C)=O)cc3[nH]2)cc1 returned CBX7 inh 0.961 and CBX7 inh z-score -0.496.
Screening O=C(Nc1nnc(Cc2ccc(Cl)cc2)s1)c1ccc(Br)cc1 returned CBX7 inh 1.07 and CBX7 inh z-score 0.776.
CCN(CC)c1cc(-n2nc(C(F)(F)F)cc2-c2ccccc2)ncn1 was read as CBX7 inh 1.27 and CBX7 inh z-score 1.69.
`CCN(CC)S(=O)(=O)c1cccc(C(=O)Nc2onc(C)c2C)c1` gave CBX7 inh 1.02 and CBX7 inh z-score 0.677.
`O=C(NC1CCCc2ccccc21)c1ccc2nc(N3CCOCC3)sc2c1` (centres undefined) gave CBX7 inh 0.858 and CBX7 inh z-score -1.33.
For COC(=O)c1ccccc1NC(=O)c1cnc2ccccn2c1=O the results were CBX7 inh 1.02 and CBX7 inh z-score 0.561.
`CCOc1ccccc1C(=O)Nc1ccc2nc(N3CCC(C)CC3)cc(C)c2c1` gave CBX7 inh 1.26 and CBX7 inh z-score 2.87.
For COc1ccc2nc(NC(=O)C3(S(=O)(=O)c4ccc(Cl)cc4)CC3)sc2c1 the results were CBX7 inh 0.987 and CBX7 inh z-score -0.476.
For CCCCCCn1c(=N)n(CC(O)COc2ccccc2OC)c2ccccc21 (centres undefined) the results were CBX7 inh 0.863 and CBX7 inh z-score -3.12.
`COc1ccc(-c2nn(C)c(=O)c3ccccc23)cc1NC(=O)c1ccccc1OC` gave CBX7 inh 0.968 and CBX7 inh z-score -1.14.
Screening Cc1ccc(-c2noc(Cc3ccccc3)n2)cc1 returned CBX7 inh 1.5 and CBX7 inh z-score 0.587.
CCOC(=O)c1cnc2ccc(Br)cc2c1Nc1ccc(OC)c(OC)c1 was read as CBX7 inh 0.809 and CBX7 inh z-score -2.06.
For Cc1ccc(N2C(=O)N(c3cccc(Cl)c3)C3CS(=O)(=O)CC32)cc1 (centres undefined) the results were CBX7 inh 0.945 and CBX7 inh z-score -1.28.
Cn1c(C(=O)O)c(CC(=O)N2CCN(c3ccccc3F)CC2)c2ccccc21 was read as CBX7 inh 1.17 and CBX7 inh z-score 2.29.
`CC(C)Oc1ccc(C(=O)N2CC(=O)Nc3ccc(F)cc3C2c2ccc(F)cc2)cc1` (centres undefined) gave CBX7 inh 0.683 and CBX7 inh z-score -5.76.
Cc1cccc(NC(=O)CCc2c(C)nc3cc(-c4cccc(F)c4)nn3c2C)c1C was read as CBX7 inh 0.997 and CBX7 inh z-score -0.0639.
CCOc1ccc(OCC)c(NC(=O)C2CCN(c3nn4c(=O)cc(C)nc4s3)CC2)c1 was read as CBX7 inh 1.09 and CBX7 inh z-score 0.815.
CCc1cccc(C)c1NC1c2ccccc2C(=O)N1c1ccc(Cl)cn1 (centres undefined) was read as CBX7 inh 0.931 and CBX7 inh z-score -0.978.
Screening O=C(COc1ccccc1)Nc1nc(-c2ccccc2)cs1 returned CBX7 inh 1.01 and CBX7 inh z-score 0.225.
`Cc1c(C(=O)NCC2CCCO2)sc2nc(-c3ccc(F)cc3)cn12` (centres undefined) gave CBX7 inh 1.01 and CBX7 inh z-score 0.408.
Screening CCCNC(=O)c1nc(-c2ccc(OC)cc2)oc1C returned CBX7 inh 1.01 and CBX7 inh z-score 0.425.
O=C(NCc1cccnc1)C1c2ccccc2C(=O)N1Cc1ccccc1 (centres undefined) was read as CBX7 inh 1.01 and CBX7 inh z-score 0.374.

An excerpt; count on the stated rates, not on these rows.
